AmpC nodet inh – Promiscuous and Specific Inhibitors of AmpC Beta-Lactamase (assay without detergent). P00811. AmpC nitrocefin hydrolysis, absorbance 480 nm, no detergent; potencies from a single point are estimates. Potency, µM (top dose mostly 28.7 µM), without a hit: top-dose activity change, negative = inhibition. hit rate 1.8% among 71,000; active = falling curve, for most hits resting on a single point; inconclusive = weak or doubtful change; inactive = flat or rising curve; note: % of control where 0% means no effect; about half of the hits show no inhibition at the top dose; a quarter of the inactives give rising signals
Target sequence (P00811 whole entry, looked up): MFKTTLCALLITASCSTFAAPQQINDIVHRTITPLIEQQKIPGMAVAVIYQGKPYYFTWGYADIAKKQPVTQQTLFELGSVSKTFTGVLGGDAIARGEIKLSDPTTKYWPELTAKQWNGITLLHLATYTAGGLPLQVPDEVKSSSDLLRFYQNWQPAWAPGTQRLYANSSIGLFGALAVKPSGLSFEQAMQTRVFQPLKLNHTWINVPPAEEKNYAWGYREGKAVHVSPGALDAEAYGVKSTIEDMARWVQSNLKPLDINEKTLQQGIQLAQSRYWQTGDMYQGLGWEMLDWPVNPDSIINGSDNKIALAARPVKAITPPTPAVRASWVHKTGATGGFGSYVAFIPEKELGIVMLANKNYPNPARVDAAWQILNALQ
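AmpC in 20 mM phosphate buffer pH 7.0 was preincubated 15 min at room temperature with compounds. Nitrocefin (800 uM stock) was then added and hydrolysis followed at 480 nm every 20 s for 4 min.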
Starred values were filed as active, the others as inactive; & = joins results of further samples; [ ] = remark or other dose. Potency is the fitted concentration of half-maximal effect. A portion of the library; the hit share may differ from the screen's.

SMILES | AmpC nodet inh
COc1ccc(-c2nc(-c3cccs3)c(-c3cccs3)[nH]2)cc1O | -6%
O=C(O)c1cccc(CN2C(=O)SC(Nc3ccccc3)C2=O)c1 (stereo unspecified) | -7%
Cc1cc(NCc2ccc3c(c2)OCO3)n2nc(C)nc2n1 | -2%
C#CCn1cc[n+](CC(=O)N(C)C)c1 | 16%
CCOc1ccc(C(=O)N2CCCCCC2)cc1 | 8%
c1c2c(cc3sc(N4CCOCC4)nc13)OCO2 | -4%
CCCOc1ccc(C(=O)Nn2c(C)nc3ccccc3c2=O)cc1 | 7%
COc1ccc(N2C(=O)C3CCCN3C2c2cccc(Br)c2)cc1 (stereo unspecified) | 69%
COc1ccc2[nH]c(C)c(CCN3C(=O)OC(C)(C)C3(C)O)c2c1 (stereo unspecified) | 10%
COc1cc2nc(NCCN3CCOCC3)n3nc(-c4ccccc4)nc3c2cc1OC | 135%
CCOC(=O)c1nnn(-c2nonc2N)c1COc1cc(C)c(Cl)c(C)c1 | 18%
O=C(NCC1CCCO1)c1cc2c(s1)CS(=O)(=O)C2 (stereo unspecified) | 1%
O=C(Oc1ccccc1)N1CCC[C@@]2(CCN(c3ncccn3)C2)C1 | 44%
CSc1nc(SC)c2c3c(oc2n1)COC(C)(C)C3 | 15%
CC1CCCCC1NC(=O)c1cncc(Br)c1 (stereo unspecified) | -12%
CCc1ccccc1NC(=O)CSc1nc2n[nH]c(C)c2c(=N)n1-c1ccc(OC)cc1 | 63%
CC(N=Cc1c(O)[nH]c(=O)[nH]c1=O)c1ccccc1 (stereo unspecified) | 0%
Cn1c(Cn2nnc3ccccc32)nnc1SCC(=O)N1c2ccccc2Sc2ccccc21 | 102%
Cc1cnc(NC(=O)COc2ccccc2Cl)s1 | -10%
c1ccc(Cn2c(SCc3nc4ccccc4s3)nnc2-c2ccco2)cc1 | 38%
O=C(O)C1CC=CCC1C(=O)Nc1ccc(F)c(F)c1 (stereo unspecified) | -11%
Cc1ccc(-n2c(C)cc3c2CCCC3=O)cc1 | 12%
N#CC1=C(N)Oc2c(c(=O)oc3ccccc23)C1c1ccc(OC(=O)N2CCOCC2)cc1 (stereo unspecified) | 109%
CC(C)Cc1nnc(NC(=O)CCC(=O)N2CCOCC2)s1 | 4%
Cc1cc(C(F)(F)F)nc(SCc2ccc(C(=O)O)o2)n1 | -4%
Additional results.
SMILES | AmpC nodet inh
O=C(c1ccc2snnc2c1)N1CCCC1 | -2%
CC(C)Cn1c(CNC(=O)c2ccccc2)nc2ccccc21 | 1%
CCSc1nnc([C@H](C)NC(=O)OC(C)(C)C)o1 | 4%
Cc1ccc(N=Cc2ccc[nH]2)c(O)c1 | -15%
COc1ccc(-c2noc(CN3CCC(Cc4ccccc4)CC3)n2)cc1 | 32%
COc1ccc(N2CCCn3c2nc2c3c(=O)n(Cc3ccccc3F)c(=O)n2C)cc1 | -8%
COc1ccc(C)cc1S(=O)(=O)Nc1ccc(F)cc1 | 4%
COc1cccc(C(c2sc3ncnn3c2O)N2CCN(C(=O)c3ccco3)CC2)c1 (stereo unspecified) | -5%
CC(C)C(c1nnnn1C1CCCCC1)N1CCc2ccccc2C1 (stereo unspecified) | 20%
CC1(C)N(O)C(c2ccc(C(=O)O)cc2)=[N+]([O-])C1(C)C | 4%
CCn1c(SCc2ccc(C#N)cc2)nnc1-c1cccc(Cl)c1 | 26%
CCn1cc(C(=O)Nc2ccccc2C(=O)OC)c(=O)c2ccc(C)nc21 | 5%
O=C(CC1CCCCC1)Nc1c2c(nn1-c1ccc(F)cc1)CS(=O)(=O)C2 | 9%
O=C(NCc1ccccc1)C1CCN(C(=O)NCc2ccccc2)CC1 | 0%
CCC(=O)N1CCc2cc(S(=O)(=O)CCC(=O)NCCc3ccc(OC)c(OC)c3)ccc21 | 33%
CCN(CC)S(=O)(=O)c1cccc(S(=O)(=O)c2cccc(S(=O)(=O)N(CC)CC)c2)c1 | 28%
CCOC(=O)C(C)Sc1nc2c(cnn2-c2ccc(C)cc2)c(=O)[nH]1 (stereo unspecified) | -5%
COc1ccccc1OCc1nc2c3c(-c4ccccc4)c(-c4ccccc4)oc3ncn2n1 | 11%
CS(=O)(=O)N1CCN(C(=O)c2csc3ccccc23)CC1 | 123%
CN1CCN(S(=O)(=O)c2cccc(C(=O)Nc3sc4c(c3C(N)=O)CCCC4)c2)CC1 | 121%
COc1ccc(CCn2c(N)c(C#N)c3nc4ccccc4nc32)cc1OC | 82%
Cc1ccc(NC(=O)CCN2CCc3ccccc3C2)cc1 | 23%
CCCS(=O)(=O)N1CCN(C(=O)c2cccc(OC)c2)CC1 | 13%
CCCn1nnc(NC(=O)COc2ccccc2Cl)n1 | 1%
CN(C)c1ccnc2sc3c(=O)n(-c4ccccc4)cnc3c12 | 8%
Additional structures.
SMILES | AmpC nodet inh
OC[C@@H]1O[C@@H](n2cnc3c(N[C@@H]4C[C@@H]5CC[C@H]4C5)ncnc32)[C@@H](O)[C@H]1O | -3%
c1ccc2sc(-c3ccc4c(c3)OCO4)nc2c1 | 9%
COc1ccc(N(CC(=O)Nc2cc(C)ccc2OC)S(=O)(=O)c2c(C)noc2C)cc1 | 44%
Cn1c(=S)c2[nH]c(SCc3cccnc3)nc2n(C)c1=O | -5%[5.75 µM]
Cn1c(N)c(C(=O)NCc2ccccc2)sc1=S | -4%
Cc1cc2c(c(SCC(=O)N(C)c3ccccc3)n1)C(=O)OC2 | 20%
O=[N+]([O-])c1cc(O)c(O)c([N+](=O)[O-])c1 | 19%&-20%
Cc1ccc(S(=O)(=O)Cc2cccc(C(=O)N3CCOCC3)c2)cc1 | -1%
COc1ccc(C(=O)CC(=O)O)c2c1C=CC(C)(C)O2 | -6%
CN1C(=O)/C(=C2\SC(=S)N(CC3CCCO3)C2=O)c2ccccc21 (stereo unspecified) | -3%
CCOCCCNC(=O)CCNC(=O)c1cc(OC)c(OC)c(OC)c1 | -4%
O=[N+]([O-])c1ccc2c(c1)S(=O)c1ccccc1-2 (stereo unspecified) | 1%[5.75 µM]
CC(NC(=O)Nc1ccccc1C(F)(F)F)C1CCCO1 (stereo unspecified) | 4%
O=c1c2ccccc2ncn1C1CCCCC1 | -6%
CC(C)N1C(=O)CN(C2CCCCCC2)C(=O)C1c1ccccc1F (stereo unspecified) | 28%
Clc1ccc(C(c2ccc(Cl)cc2)n2cc[n+](C[C@@H](OCc3ccc(Cl)cc3Cl)c3ccc(Cl)cc3Cl)c2)cc1 | 60%
CC1=C(C#N)C(c2cn(-c3ccccc3)nc2-c2cccs2)C(C#N)=C(C)N1 | 2%
CCOc1ccc(CCNC(=O)c2oc3c(c2C)-c2[nH]ncc2CC3)cc1OCC | 90%
CCOC(=O)C1CCN(Cc2c(F)cccc2Cl)CC1 | 1%
O=C(O)c1c(Cl)cccc1Cl | -12%
CC1(C)Cc2c(sc(NC(=O)c3ccco3)c2C#N)C(C)(C)N1 | -8%
CCOC(=O)C1=C(N2CCCCC2)c2cc3c(n2C1=O)CCCC3 | 59%
CCOc1ccc2[nH]c(=O)c(CN(Cc3ccc(C)cc3)C(=O)N3CCCC3)cc2c1 | 72%
COc1cc(C(=O)NCc2nnc(SCC(=O)N3CCCCC3)o2)cc(OC)c1OC | 14%
O=C(NC1=NCCS1)c1cccc(S(=O)(=O)N2CCCCC2)c1 | -4%

A draw from above in order of heavy-atom count, high to low.
SMILES | AmpC nodet inh
CCOc1ccc(CCNC(=O)c2oc3c(c2C)-c2[nH]ncc2CC3)cc1OCC | 90%
COc1ccc(CCn2c(N)c(C#N)c3nc4ccccc4nc32)cc1OC | 82%
O=C(CC1CCCCC1)Nc1c2c(nn1-c1ccc(F)cc1)CS(=O)(=O)C2 | 9%
CCOC(=O)C(C)Sc1nc2c(cnn2-c2ccc(C)cc2)c(=O)[nH]1 (stereo unspecified) | -5%

The list goes on:
SMILES | AmpC nodet inh
C=CCNC(=O)c1ccccc1NS(=O)(=O)c1ccccc1 | 1%
COc1ccc(OC)c(S(=O)(=O)Nc2cccc(C(C)=O)c2)c1 | -2%
CCOc1ccc(-n2c(-c3ccco3)n[nH]c2=S)cc1 | -11%
O=C(NCc1ccc2c(c1)OCO2)C1CCCN(S(=O)(=O)c2cccc3cccnc23)C1 (stereo unspecified) | 14%
O=S(=O)(c1ccc2c(c1)C(=NO)c1cc(S(=O)(=O)N3CCCCC3)ccc1-2)N1CCCCC1 | -24%
O=C(c1cnccn1)N1CCC2(CCCN(c3ncccn3)C2)CC1 | 19%
CNC(=O)c1c(C)nc(SCC(=O)NCc2ccc(OC)cc2)c(C#N)c1-c1ccco1 | 3%
CC1CCN(S(=O)(=O)c2ccc3c(c2)CCN3C(=O)CCC(=O)O)CC1 | 7%
CN(c1ccc(C(=O)N2CCCCC2)cc1)S(C)(=O)=O | 1%
CCN(CC)C(=O)CSc1nnc(-c2ccccc2)n1-c1ccccc1 | 38%
Cc1ccccc1CNS(=O)(=O)c1ccc2c(c1)OCCO2 | -14%
Cn1c(N2CCOCC2)nc(-c2ccccc2)c1-c1ccccc1 | 112%
Cc1cc(NC(=O)CSc2nnc(-c3ccco3)n2CC2CCCO2)no1 (stereo unspecified) | -11%
O=C(NCc1nnc(SCC(=O)N2CCC(Cc3ccccc3)CC2)o1)c1ccccc1F | 64%
Cc1cc(OCC(O)CN2CCN(C)CC2)ccc1C(C)C (stereo unspecified) | 12%
O=C(Cn1nc(Cl)nc1Cl)c1ccc2c(c1)OCCO2 | 1%
CCOC(=O)CNc1ccc2c(c1)OCO2 | 1%
CCCN1C(=O)c2cc(C(=O)Nc3ccccc3CC)ccc2C1O (stereo unspecified) | 4µM*[single pt active]
COC(=O)c1ccccc1NC(=O)Cn1cnc2c(cnn2-c2ccccc2)c1=O | -9%
Cc1ccc(-c2nc(C3CCN(S(=O)(=O)c4ccc(C(F)(F)F)cc4)CC3)no2)cc1 | 6%
O=C(Nc1cccs1)NC1CCCC1 | -12%
Cc1ccccc1NC(=O)Cn1cnc2c(oc3ccccc32)c1=O | 11%
COC(=O)c1ccccc1NC(=O)Cn1c(-c2nonc2N)nc2ccccc21 | -11%
C[C@@H]1CCN=C(N)S1 | 0%&3%
c1ccc(CCc2nn3c(C4COc5ccccc5O4)nnc3s2)cc1 (stereo unspecified) | 37%
Later entries.
SMILES | AmpC nodet inh
Cc1ccc(-c2nc(C#N)c(NCCc3ccccn3)o2)cc1 | -15%
NS(=O)(=O)c1ccc(CCNC(=O)CNC(=O)C2CCCCC2)cc1 | -1%
CC(C)n1c(NCc2nc3ccccc3n2C)nc2ccccc21 | 41%
Cn1c(SCC(=O)N2CCCc3ccccc32)nnc1-c1ccco1 | 7%
CCCC(=O)Nc1ccc(Cl)c(NC(=O)c2ccc(Br)o2)c1 | 37%
COc1cccc(N2C(=O)CC(N3CCC(c4nc5ccccc5[nH]4)CC3)C2=O)c1 (stereo unspecified) | 36%
COc1cccc(-c2cc(C(=O)N3CCN(c4ncccn4)CC3)c3ccccc3n2)c1 | 126%
Cc1nnc(SC(C)C(=O)Nc2ccc3c(c2)OCCO3)s1 (stereo unspecified) | -4%
O=C(NCC(=O)N(c1cccnc1)C(C(=O)NC1CCCCC1)c1cccnc1)c1ccco1 (stereo unspecified) | 19%
Cc1cc(NC(=O)CCC(=O)N(c2cccc(F)c2)C(C(=O)NC2CCCC2)c2ccncc2)no1 (stereo unspecified) | 28%
CCCCN(C)CCNC(=O)c1c[nH]c2ccc(S(=O)(=O)N(CC)CC)cc2c1=O | 16%
N=c1ccn2c(n1)O[C@@H]1[C@@H](O)[C@H](CO)O[C@H]12 | 1%
Cc1cccc(-c2nnc3sc(-c4ccccc4)nn23)c1 | 66%
COc1ccc(CCN(C)C(=O)CSc2nccn2C)cc1OC | -13%
C=CCn1c(Cc2csc(N)n2)nnc1SCC(=O)OCC | 5%
Cc1oc(-c2cccs2)nc1CS(=O)CC(=O)NCCc1ccccc1 (stereo unspecified) | 10%
CC(=O)N1CCN(c2ccc(Oc3nc(-c4ccccc4)nc4ccccc34)cc2)CC1 | 108%
Cc1ccc(NS(=O)(=O)c2ccc(C)c(C(=O)N3CCN(C)CC3)c2)cc1 | 18%
CCOC(=O)CC(NS(=O)(=O)c1ccc(NC(C)=O)cc1)c1ccc(OCC)cc1 (stereo unspecified) | 15%
O=C(O)c1ccc(Oc2nc3ccccc3s2)cc1 | -5%[5.75 µM]
CN(C)c1ccc(-c2nnn(CC(=O)Nc3ccccc3N3CCOCC3)n2)cc1 | 59%
Cn1c(SCC(=O)N2CCOCC2)nc2sc3c(c2c1=O)CCCC3 | 136%
O=C(NCCc1ccccc1)NC1CCCCC1 | -4%
Cc1ccc(-n2c(SCC(=O)NCC3CCCO3)nnc2-c2ccoc2C)cc1 (stereo unspecified) | 60%
COCC(=O)Nc1ccc(S(=O)(=O)NCCc2ccccc2)cc1 | 11%
COc1ccc(Oc2ncc3nc(C)c(=O)n(CCC#N)c3n2)cc1 | 33%
CNC(=O)c1c[nH]n2c(=O)c(Cc3ccccc3F)c(C)nc12 | -8%

Structures above with a Cl atom, in the order listed:
SMILES | AmpC nodet inh
CCOC(=O)c1nnn(-c2nonc2N)c1COc1cc(C)c(Cl)c(C)c1 | 18%
Cc1cnc(NC(=O)COc2ccccc2Cl)s1 | -10%
CCn1c(SCc2ccc(C#N)cc2)nnc1-c1cccc(Cl)c1 | 26%
CCCn1nnc(NC(=O)COc2ccccc2Cl)n1 | 1%
Clc1ccc(C(c2ccc(Cl)cc2)n2cc[n+](C[C@@H](OCc3ccc(Cl)cc3Cl)c3ccc(Cl)cc3Cl)c2)cc1 | 60%
CCOC(=O)C1CCN(Cc2c(F)cccc2Cl)CC1 | 1%
O=C(O)c1c(Cl)cccc1Cl | -12%
O=C(Cn1nc(Cl)nc1Cl)c1ccc2c(c1)OCCO2 | 1%
CCCC(=O)Nc1ccc(Cl)c(NC(=O)c2ccc(Br)o2)c1 | 37%
